Compound activity from PubChem.
D2 potentiator: human D2 receptor positive allosteric modulation | AID 624464 | DiscoveRx D2 beta-arrestin cells, luminescence, 90 min; 100% = 57 uM dopamine signal | hit rate 0.23% among 360,000 | potentiation, % (test concentration not listed) | P14416; active = potentiation of 50% or more; inconclusive = 30% to 50%; inactive = 30% or less;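 note: compound concentration not given in the record; tested on top of an EC20 dose of dopamine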
Target sequence (P14416 whole entry, looked up): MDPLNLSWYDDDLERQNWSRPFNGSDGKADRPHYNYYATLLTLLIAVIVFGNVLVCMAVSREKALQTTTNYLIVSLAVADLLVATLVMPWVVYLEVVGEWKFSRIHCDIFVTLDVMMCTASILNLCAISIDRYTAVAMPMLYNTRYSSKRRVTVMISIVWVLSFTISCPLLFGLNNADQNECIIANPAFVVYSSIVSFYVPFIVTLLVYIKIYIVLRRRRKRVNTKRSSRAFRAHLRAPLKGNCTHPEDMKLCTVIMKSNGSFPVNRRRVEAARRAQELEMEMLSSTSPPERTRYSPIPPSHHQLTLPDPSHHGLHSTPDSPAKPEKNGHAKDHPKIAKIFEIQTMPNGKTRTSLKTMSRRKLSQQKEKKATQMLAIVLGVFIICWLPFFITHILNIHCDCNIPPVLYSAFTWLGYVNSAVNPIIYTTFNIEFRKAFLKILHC
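D2 cells co-treated with compound plus 50 nM dopamine (EC20) for 90 min at 37 deg C to detect potentiation. Beta-arrestin recruitment was read as enzyme-fragment luminescence after 1 h at ambient temperature. Full response was set by 57 uM dopamine.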
TRPML1 ag: human mucolipin-1 channel agonism | TRPML1-expressing cells, Ca2+ dye fluorescence, FDSS; host cell line not named in the record; reference of the full effect not given here | activation, % (concentration not given with the values) | Q9GZU1 | hit rate 0.12% among 410,000; in the data active = activation above about 50%; inconclusive = about 30% to 50%; inactive = below about 30%; note: 0% is about no effect; the text of the record puts the active cut at 80%
Target sequence (Q9GZU1 whole entry, looked up): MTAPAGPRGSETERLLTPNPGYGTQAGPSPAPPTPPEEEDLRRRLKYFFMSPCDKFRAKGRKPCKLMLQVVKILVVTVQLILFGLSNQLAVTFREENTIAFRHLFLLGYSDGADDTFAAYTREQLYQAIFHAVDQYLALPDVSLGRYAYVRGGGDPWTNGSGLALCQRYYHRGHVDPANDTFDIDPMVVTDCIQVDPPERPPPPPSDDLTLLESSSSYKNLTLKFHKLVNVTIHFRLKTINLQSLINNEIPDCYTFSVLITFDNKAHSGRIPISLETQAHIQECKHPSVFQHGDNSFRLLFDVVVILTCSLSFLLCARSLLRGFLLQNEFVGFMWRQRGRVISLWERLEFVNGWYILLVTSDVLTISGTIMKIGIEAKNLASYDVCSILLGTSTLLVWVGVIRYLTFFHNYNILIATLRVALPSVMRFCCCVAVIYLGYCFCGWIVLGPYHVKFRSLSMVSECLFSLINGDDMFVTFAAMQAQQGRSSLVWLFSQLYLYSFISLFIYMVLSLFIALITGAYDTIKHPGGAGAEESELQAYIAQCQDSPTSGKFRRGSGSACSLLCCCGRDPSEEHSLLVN
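Tet-induced TRPML1-DL cells, 1,500 per well, cultured overnight, were loaded with a no-wash Ca2+ dye for 45–90 min. Calcium fluorescence was recorded on the FDSS for 110 s after compound addition, before the EC80 agonist (4 uM 54-4) was added.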
TRPV1 PAM: human TRPV1 potentiation. Q8NER1. TRPV1-expressing cells, Fluo-8 calcium influx, capsaicin EC20 potentiation; host cell line not named in the record; control for the full effect not named in the record. potentiation, % at 8.33 µM. hit rate 0.02% among 320,000; active means potentiation above 80%; inconclusive means 30% to 80%; inactive means below 30%; note: 0% is about no effect
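TRPV1-expressing cells were cultured overnight at 35.5C and loaded with Fluo-8 calcium dye for 40 to 90 min at room temperature. After a 10 s baseline, compound was added and calcium influx was read kinetically for 3 min (ex 480/em 520 nm).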
Six1-Eya2 blk: inhibitors of human Six1/Eya2 interaction; Q15475+O00167; AlphaScreen GST-Six1/His-Eya2 binding, biochemical; active compounds read low; control for the full effect not named in the record; activity change, % (no concentration beside the values); hit rate 0.56% among 360,000; in the data active = activity change below about -65%; inconclusive = about -30% to -65%; inactive = above about -30%; note: % is set by controls: 0 for no effect and ±100 for the full control effect
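Compounds are tested against tagged Six1 and Eya2 proteins bridged by glutathione donor and nickel acceptor beads; after a one-hour incubation at 37 °C without light, AlphaScreen emission is recorded.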
TRPML1 inh: human mucolipin-1 channel inhibition | Q9GZU1 | TRPML1-inducible cells, Ca2+ dye fluorescence, FDSS; active compounds read low; inhibition of EC80 agonist-evoked calcium signal | activity change, negative = inhibition, % (test concentration not listed) | hit rate 0.02% among 390,000 | AID 624415; in the data active means activity change below about -50%; inconclusive means about -30% to -50%; inactive means above about -30%;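 note: stimulus is agonist 54-4 at its EC80 concentration; % is set by controls: 0 for no effect and ±100 for the full control effect; compound concentration not given in the record; the text of the record puts the active cut at -80%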
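TRPML1-DL cells, Tet-induced overnight (~16 h, 37 °C) at 1,500 cells/well, were loaded with Ca8 no-wash dye plus quencher for 45-90 min at room temperature. Compounds were pinned during FDSS kinetic reading; agonist 54-4 at EC80 (4 uM final) then added.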
CtBP-E1A inh: inhibitors of CtBP/E1A interaction. AlphaScreen GST-E1A/His-CtBP binding, 1536-well; active compounds read low; control for the full effect not named in the record. activity change, % (no concentration beside the values). hit rate 0.49% among 340,000. AID 651724; in the data active means activity change below about -65%; inconclusive means about -30% to -65%; inactive means above about -30%; note: % is set by controls: 0 for no effect and ±100 for the full control effect
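Steps: dispense buffer (Tris pH 8.0, NaCl 300 mM, TCEP 1 mM, BSA, Tween 20); add 5X protein mix (GST-E1A, His-CtBP, 125 nM each); pin 23 nL compound; 2 h at 37 °C, dark; add 5X beads (50 ug/mL); 1 h; read.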
The depositor's hits bear a star; ? = inconclusive; nt = no result given; & = joins results of further samples.

nr | SMILES | D2 potentiator | TRPML1 ag | TRPV1 PAM | Six1-Eya2 blk | TRPML1 inh | CtBP-E1A inh
1 | CCC1(C)Cc2c(sc3nnn(CC(=O)Nc4ccc(Cl)cc4)c(=O)c23)CO1 (stereo not given) | -19 | 0.5 | 0 | -10 | 41 | -10
2 | CCOC(=O)N1CCN(C(=O)c2cnsn2)CC1 | -8 | 0.0 | -6 | 3 | -7 | 0
3 | CCn1c(COc2ccccc2)nnc1SCC(=O)Nc1ccc(N2CCOCC2)cc1 | -2 | 1.0 | 2 | 6 | -15 | -7
4 | O=C(O)CNC(=O)CC12CC3CC(CC(C3)C1)C2 | -6 | 0.9 | 0 | 12 | 1 | 1
5 | CSc1ncc(C(=O)Nc2cccc(Cl)c2)c(C)n1 | -10 | 1.7 | -18 | 3 | -12 | nt
6 | CCCc1c(C(=O)N/N=C/C(C)=C/c2ccccc2)nnn1-c1nonc1N | -6 | 0.0 | 5 | 6 | 34 | -9
7 | CC(=O)Nc1ccc(NC(=O)C(C)OC(=O)CNS(=O)(=O)/C=C/c2ccc(C)cc2)cc1 (stereo not given) | -30 | -0.1 | 2 | -2 | 7 | -14
8 | Cc1ccc(OCc2nnc(NC(=O)OCC(C)C)s2)cc1 | -21 | -0.7 | 29 | 2 | 9 | 0
9 | C=CC(C)(C)O[C@@H]1O[C@H](CO)[C@@H](O)[C@H](O)[C@H]1O | -7 | -0.3 | -16 | 5 | 1 | 2
10 | CC(C)[C@H](NC(=O)c1ccc(Cl)cc1Cl)C(=O)NNC(=O)c1ccco1 | -3 | -0.3 | nt | 11 | -6 | 25
11 | O=C(CC1C(=O)NCCN1C1CCCC1)NCc1cccc(OC(F)(F)F)c1 (stereo not given) | -4 | -0.2 | -8 | 8 | -9 | -2
12 | Cn1cc(CN2CCC(n3nccc3NC(=O)C3CCCC3)CC2)cn1 | -3 | 0.7 | 2 | 2 | -10 | 7
13 | COc1ccc(OC)c(NC(=O)C2(C)CCN2C(=O)C(C)(C)c2ccccc2)c1 (stereo not given) | 3 | -1.2 | nt | -13 | nt | -8
14 | N#CC1=C(N2CCCCC2)c2cc3c(n2C1=O)CCCC3 | -25 | -0.2 | -19 | ? | -12 | ?
15 | CCc1cc2c(=O)[nH]c(Cc3ccc(Cl)cc3)nc2s1 | -4 | -1.0 | 1 | 7 | -9 | 0
16 | Nc1nnc(CCN2C(=O)CSC2=O)s1 | -8 | -0.4 | -2 | 2 | 1 | 10
17 | Cn1nc(-c2ccccc2)c(C(O)c2ccc(Cl)cc2)c1Cl (stereo not given) | -1 | -0.1 | 17 | 6 | -12 | 10
18 | COc1cccc(NC(=O)CN(C)C(C)C(=O)N2CCCC2)c1 (stereo not given) | -5 | -0.4 | 10 | -7 | 36 | nt
19 | O=C(Nc1cccc(-c2nc3ccccc3s2)c1)c1cc(=O)c2ccccc2o1 | -3 | -0.3 | 27 | 0 | -9 | -8
20 | CC1=C(C(=O)OCCOC(C)C)C(c2cc3c(cc2Br)OCO3)CC(=O)N1 (stereo not given) | 0 | 0.9 | 4 | -2 | -2 | -2
21 | Cc1ccc2oc(=O)c3cnn(CC(=O)NC4CCC(C)CC4)c3c2c1 (stereo not given) | -4 | 0.2 | 8 | 21 | -3 | 24
22 | Cc1nc(NC(=O)CC(C)C)sc1-c1csc(Nc2ccc(Cl)cc2Cl)n1 | -6 | -0.2 | 0 | -15 | -6 | -16
23 | CC(=O)c1cc2c(cc1N/C(=N/S(=O)(=O)c1ccc(C)cc1)c1ccccc1)OCO2 | 15 | -0.5&2.7 | -7 | 2 | 1&15 | 7
24 | CC(=O)Nc1ccc(/C=C2\Sc3ccccc3C2=O)cc1 | 56* | 2.1 | -31 | -2 | 8 | 0
25 | CCC(C)Nc1nc(N)c([N+](=O)[O-])c(Nc2cc(OC)ccc2OC)n1 (stereo not given) | -9 | 2.1 | 3 | ? | -8 | ?
26 | CCN(CC)CCN(Cc1cc2cc3c(cc2[nH]c1=O)OCO3)C(=S)NC | -9 | 0.2 | 7 | -1 | 2 | 3
27 | CCC(C(=O)c1ccccc1)N(C(=O)c1ccccc1Cl)N1C(=O)C2C3C=CC(C3)C2C1=O (stereo not given) | -16 | 2.3 | -13 | -2 | -7 | 3
28 | CC1(C(=O)OCC(=O)c2c[nH]c3ccccc23)CC1(Cl)Cl (stereo not given) | 4 | 1.6 | -12 | 0 | 10 | 8
29 | COc1ccc(NC2=C(Cl)C(=O)N(CCc3ccccc3)C2=O)cc1 | 0 | 4.8 | 4 | -20 | 8 | -18
30 | Cc1cccc(/N=C/c2nc(-c3ccccc3Br)oc2O)n1 | -15 | 2.3 | -12 | -8 | -6 | nt

Shown in transposed form: entries from further up
#14 N#CC1=C(N2CCCCC2)c2cc3c(n2C1=O)CCCC3
#15 CCc1cc2c(=O)[nH]c(Cc3ccc(Cl)cc3)nc2s1
#16 Nc1nnc(CCN2C(=O)CSC2=O)s1
#17 Cn1nc(-c2ccccc2)c(C(O)c2ccc(Cl)cc2)c1Cl (stereo not given)
#18 COc1cccc(NC(=O)CN(C)C(C)C(=O)N2CCCC2)c1 (stereo not given)
#19 O=C(Nc1cccc(-c2nc3ccccc3s2)c1)c1cc(=O)c2ccccc2o1

| assay / entry | 14 | 15 | 16 | 17 | 18 | 19 |
| --- | --- | --- | --- | --- | --- | --- |
| D2 potentiator | -25 | -4 | -8 | -1 | -5 | -3 |
| TRPML1 ag | -0.2 | -1.0 | -0.4 | -0.1 | -0.4 | -0.3 |
| TRPV1 PAM | -19 | 1 | -2 | 17 | 10 | 27 |
| Six1-Eya2 blk | ? | 7 | 2 | 6 | -7 | 0 |
| TRPML1 inh | -12 | -9 | 1 | -12 | 36 | -9 |
| CtBP-E1A inh | ? | 0 | 10 | 10 | nt | -8 |

Next part:
no.	structure	D2 potentiator	TRPML1 ag	TRPV1 PAM	Six1-Eya2 blk	TRPML1 inh	CtBP-E1A inh
31	Cn1nnnc1SCC(=O)NC(=O)NCc1ccccc1	1	-0.7	-10	1	1	5
32	COc1cccc(C(=O)Cn2c(=O)n(CCC(=O)NCC3CCCO3)c(=O)c3cc(OC)c(OC)cc32)c1 (stereo not given)	2	2.2	4	6	19	nt
33	N#Cc1cc(C(=O)c2cc(F)ccc2O)cn(Cc2ccccc2)c1=O	16	1.2	11	-10	19	-3
34	COc1cccc2c1OC1(C)CC2NC(=O)N1 (stereo not given)	0	0.1	-6	2	-6	-3
35	COc1cccc(CSc2nnnn2-c2ccc(O)cc2)c1	-5	5.1	5	1	33	8
36	COc1ccc(Cl)cc1N(C(=O)Nc1cccc(Cl)c1)C1=NCC(C)S1 (stereo not given)	1	7.5	-3	-3	-2	9
37	COc1ccc(-n2nc(C(=O)NCC(=O)NCCCN3CCOCC3)c3ccccc3c2=O)cc1	-5	0.6	-2	0	-1	0
38	CCOc1ccc(-c2n[nH]c(=S)o2)cc1	0	0.6	-5	-21	0	0

Entries listed so far printed as active in D2 potentiator:
| entry | Molecule | D2 potentiator | Six1-Eya2 blk | TRPML1 inh | CtBP-E1A inh |
| --- | --- | --- | --- | --- | --- |
| 24 | CC(=O)Nc1ccc(/C=C2\Sc3ccccc3C2=O)cc1 | 56* | -2 | 8 | 0 |

Continuation.
no.	structure	D2 potentiator	TRPML1 ag	TRPV1 PAM	Six1-Eya2 blk	TRPML1 inh	CtBP-E1A inh
39	CCOC(=O)Cc1nnc(NC(=O)CSc2ccc(Cl)cc2)s1	17	-0.1	-27	0	4	36
40	CCCc1cc(=O)[nH]c(SC/C=C/c2ccccc2)n1	0	0.2	nt	-10	5	1
41	CCCc1cc(=O)[nH]c(SCC(=O)N(CC)c2c(N)n(Cc3ccccc3)c(=O)[nH]c2=O)n1	-11	-0.8	6	-2	17	-2
42	O=C(COc1ccc(Cl)cc1Cl)Nn1c(=S)[nH]c2ncccc2c1=O	-7	0.8	-5	-20	4	-4
43	CC(NCc1ccc(N(C)C)cc1)C1CC2CCC1C2 (stereo not given)	-19	1.5	3	-21	-6	-13
44	O=C1OC(=O)C2C1[C@@H]1CC[C@H]2O1 (stereo not given in full)	-10	-0.4	-3	6	3	4
45	O=C(COC(=O)Cc1ccsc1)Nc1ccc(S(=O)(=O)N2CCOCC2)cc1	-3	0.2	-11	-1	-3	0
46	NS(=O)(=O)c1ccc(CCNC(=S)Nc2ccc(F)cc2)cc1	-9	0.3	4	10	9	3

Further records
no.	structure	D2 potentiator	TRPML1 ag	TRPV1 PAM	Six1-Eya2 blk	TRPML1 inh	CtBP-E1A inh
47	CC(C)C12CN3CC(C(C)C)(CN(C1)C3c1ccco1)C2=O (stereo not given)	-17	-0.4	-4	0	14	4
48	COc1cccc(C(C)N(C)Cc2nc(COc3ccccc3)no2)c1 (stereo not given)	-11	3.7	-12	3	-24	10
49	Brc1ccc(-c2nc3ncccn3c2NC2CCCCC2)o1	1	2.1	-4	-19	3	-4
50	Cc1ccc(S(=O)(=O)Cc2ccc(C(=O)NCc3cccs3)o2)cc1	11	-0.8	?	6	8	1
51	Cc1nc(NC(CC(C)C)C(=O)O)c2nc(C)oc2n1 (stereo not given)	-10	0.8	8	5	4	2
52	C/C(=N/NC(=O)CCCOc1ccc(Cl)cc1Cl)c1ccc(C)o1	-1	0.1	-4	-1	30	-6
53	CCOc1cc(/C=C2\C(=O)N(c3ccc(C(N)=O)cc3)N=C2C)ccc1OC(=O)c1cccs1	-15	-0.7	7	-7	1	-2
54	Nc1nc(CSC(=S)N2CCCCC2)nc(Nc2ccccc2)n1	-5	0.4	26	-1	5	0

(list continues)
no.	structure	D2 potentiator	TRPML1 ag	TRPV1 PAM	Six1-Eya2 blk	TRPML1 inh	CtBP-E1A inh
55	O=c1c2ccccc2nnn1COc1cccc2ccccc12	-2	6.1	7	4	6	15
56	Cc1noc(C)c1COc1ccc(C(=O)NCc2ccccn2)cc1	-20	0.7	-31	5	-12	1
57	O=C(CSc1ccc(Cl)cc1)N1CCN(c2c(Cl)cccc2[N+](=O)[O-])CC1	3	1.0	-7	?	35	-12
58	CC(C(=O)Nc1cccc([N+](=O)[O-])c1)N(c1ccccc1)S(C)(=O)=O (stereo not given)	-6	-0.5	2	-1	6	3
59	Cc1ccsc1/C=C1/CN(C)Cc2c1nc1ccccc1c2C(=O)O	-8	2.1	-1	0	30	2
60	CCOC(=O)[C@]12CCC=C1N(Cc1cccc3ccccc13)C(=O)[C@H](CC(=O)NCc1ccc(OC)c(OC)c1)C2	nt	-0.6	nt	-15	nt	-3
61	Cc1ccc(CCN2CC(C(=O)NCc3ccco3)CC2=O)cc1 (stereo not given)	-9	-0.2	17	-18	-4	7
62	CSC(=NC#N)N1CCN(c2ccccn2)CC1	-4	-0.6	13	10	0	nt
